Compound activity: PubChem BioAssay, several laboratories
eIF4H FP inh – inhibitors of RNA binding by human eIF4H; inhibition, % at 35 µM; eIF4H fluorescence polarization binding assay; AID 2012; 0.94% of 290,000 active; Q15056;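 active = 50% or more with normal probe brightness, or confirmed in later tests; inconclusive = above 50% with abnormal brightness, or retests that disagree; inactive = below 50% or failed in later tests; about a fifth of its hits are not listed in these tables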;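 note: calls also rest on retests at 20 µM and on dose response follow-up; 0% = protein and probe with vehicle and 100% = probe without protein; strong numbers were not always called active; many hits fall short of the cut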
CSC inhib – blocks cancer stem cells. inhibition, % at 7.5 µM. 1.1% of 300,000 active. AID 2717. cancer stem cell-like cells viability, luminescence;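 active = mean at 75% or more and at least half the replicates too; inconclusive = mean and replicates disagree; tested in HMLE shEcad cells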;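 note: 0% = median of negative and 100% = median of positive control wells; the first replicate is given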
UUG fidelity – modulators of start codon recognition fidelity in yeast. S. cerevisiae UUG-firefly luciferase reporter, luminescence/redox ratio. 0.13% of 350,000 active. activity score, % at 18.7 µM;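 active = replicate mean at a twofold rise or more, about +100% in these data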;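 note: firefly luciferase made from a UUG start codon reports start codon fidelity; reporter light over untreated wells divided by growth signal over untreated wells; some hits fall short of that in this replicate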
PABP polyA inh – blocks human PABP binding to poly(A) RNA. 1% of 290,000 active. AID 2014. inhibition, % at 35 µM. fluorescence polarization;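 active = 50% or more with normal probe brightness, or confirmed in later tests; inconclusive = above 50% with abnormal brightness, or retests that disagree; inactive = below 50% or failed in later tests; about a fifth of its hits are not listed in these tables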;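 note: calls also rest on retests at 20 µM and on dose response follow-up; controls were probe without protein and protein plus probe with vehicle; some compounds called inactive have numbers as strong as hits; many hits fall short of the cut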
Target sequence (P11940 whole entry, looked up): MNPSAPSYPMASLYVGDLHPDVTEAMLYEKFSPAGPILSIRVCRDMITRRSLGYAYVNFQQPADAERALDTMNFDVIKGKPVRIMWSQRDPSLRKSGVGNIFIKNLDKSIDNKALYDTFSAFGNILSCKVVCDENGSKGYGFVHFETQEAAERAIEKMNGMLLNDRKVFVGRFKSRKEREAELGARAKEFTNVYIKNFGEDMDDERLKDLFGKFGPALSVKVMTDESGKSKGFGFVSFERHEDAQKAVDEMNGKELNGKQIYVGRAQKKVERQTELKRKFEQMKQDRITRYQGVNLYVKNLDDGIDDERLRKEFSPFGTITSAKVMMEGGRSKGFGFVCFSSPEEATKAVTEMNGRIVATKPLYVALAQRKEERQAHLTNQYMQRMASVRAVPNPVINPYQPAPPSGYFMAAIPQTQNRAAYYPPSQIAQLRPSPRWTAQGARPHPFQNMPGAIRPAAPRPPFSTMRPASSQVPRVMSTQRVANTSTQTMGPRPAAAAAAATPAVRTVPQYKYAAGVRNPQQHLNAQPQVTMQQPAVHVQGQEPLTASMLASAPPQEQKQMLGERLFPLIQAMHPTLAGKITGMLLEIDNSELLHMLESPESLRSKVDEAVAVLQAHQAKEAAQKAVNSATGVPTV
Rce1 inhib – blocks yeast Ras-converting enzyme; 0.27% of 290,000 active; Q03530; AID 2563; yeast membranes, quenched prenylated peptide cleavage fluorescence; calls only;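 active = fall in fluorescence gain of 50% or more versus controls, with final raw signal at or below 3038400; inconclusive = same 50% fall but final raw signal above 3038400; inactive = fall in fluorescence gain under 50%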;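 note: plate controls were neutral control wells for no effect and wells lacking membranes for full effect; tested at 10 µM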
eIF4H FP inh retest – recorded beside eIF4H FP inh, whose call it bears; inhibition, %; compound at 20 µM; confirmation average;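 mean of two retest wells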
PABP polyA inh retest – second read-out of PABP polyA inh, no call of its own (marks repeat the call); inhibition, %; compound at 20 µM; confirmation repeats;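 mean of two retest wells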
Active calls of the source: *; i = inactive; u = inconclusive; x = not tested or not shown. These rows are one share of the data, so the mix of outcomes need not match the whole.

SMILES | eIF4H FP inh | CSC inhib | UUG fidelity | PABP polyA inh | Rce1 inhib | others
CCOC(=O)c1c(N)n(CC(C)NC(=O)C2CC2)c2nc3ccccc3nc12 (configuration not stated) | 5.6 | x | x | -5.1 | x
Nc1c(C(=O)NC2CCCCC2)c2nc3ccccc3nc2n1/N=C/c1ccco1 | 25.2 | x | x | 15.1 | x
O=C(c1noc2c1CCCC2)N1CCN(C(c2ccccc2)c2ccccc2)CC1 | -8.5 | x | x | -1.1 | x
COc1ccc(N2CCn3c2nc2c3c(=O)n(CCCc3ccccc3)c(=O)n2C)cc1 | -1.2 | x | x | -5.7 | x
CCN(CC)CCCN1C(=O)C(=O)/C(=C(/O)c2ccc3c(c2)CC(C)O3)C1c1cccnc1 (configuration not stated) | -4.8 | x | x | -1.5 | x
CCOC(=O)C1CCCN(c2c(N3CCc4ccccc4C3)c(=O)c2=O)C1 (configuration not stated) | -9.8 | x | x | 4.2 | x
O=C(N1CCCC1)N1CCN(c2ncnc3c(-c4ccc(Cl)cc4)nsc23)CC1 | -3.8 | x | x | -5.1 | x
NC(=O)CC[C@@H]1NC(=O)C(Cc2ccc(O)cc2)NC(=O)c2cc([N+](=O)[O-])cc(F)c2NCCC[C@@H](C(N)=O)NC1=O (some centres not stated) | 0.6 | x | x | -9.4 | x
CCn1c(SCC(=O)c2cc(OC)ccc2OC)nc2c1c(=O)n(C)c(=O)n2C | -5.4 | x | x | -3.0 | x
CSc1ncc(Cl)c(C(=O)Nc2sc3c(c2C(=O)NCc2ccco2)CCCC3)n1 | 0.5 | x | x | 6.0 | x
CN1CCc2c(c3c(n2C)CCN(C)[C@H]3c2ccccc2F)[C@@H]1c1ccccc1F | 5.9 | x | x | 44.3 | x
Cc1ccc(S(=O)(=O)c2cnc(-c3ccccc3)nc2Oc2ccccc2)cc1 | -7.8 | x | x | -8.9 | x
CN(C)CCCN1C(=O)C(=O)/C(=C(/O)c2ccccc2)C1c1ccccn1 (configuration not stated) | -4.8 | x | x | -7.1 | x
COc1cc(C2NC(C(=O)O)CS2)ccc1OCc1ccccc1C#N (configuration not stated) | 3.4 | x | x | 0.9 | x
Cc1sc2ncn(CC(=O)OC(C)C)c(=O)c2c1C | -16.0 | x | x | -9.4 | x
c1ccc(-c2ccc(-c3nccc4ccccc34)[nH]2)cc1 | 61.6* | x | x | 13.3* | x | eIF4H FP inh retest=87.1*;PABP polyA inh retest=55.4*
CC(=NCc1ccncc1)C1=C(O)c2ccccc2C1=O | -14.0 | x | x | 15.4 | x
COc1ccc(N2CCN(Cc3cc(=O)oc4c3ccc3ccccc34)CC2)cc1 | 3.1 | x | x | 6.5 | x
CSc1ncccc1C(=O)OCc1ccc(COC(=O)c2cccnc2SC)cc1 | 0.5 | x | x | -3.2 | x
Cc1nc2cc(-c3cccc(Cl)c3)nn2c(N2CCN(C(=O)c3ccco3)CC2)c1C | -9.9 | x | x | 3.7 | x
COc1ccc(OC)c(CNCCNC(=O)c2ccco2)c1 | 6.1 | x | x | 24.1 | x
CCN(CC)CCCC(C)Nc1c2ccc(Cl)cc2nc2ccc(OC)cc12 (configuration not stated) | u | x | x | u | x
Cn1c(=O)oc2cc(S(=O)(=O)N3CCCC(C(=O)N4CC=C(c5ccccc5)CC4)C3)ccc21 (configuration not stated) | -1.7 | x | x | -6.8 | x
COc1ccc(C2=CC3=CC(=O)C(C)(O)C(=O)C3=CO2)cc1 (configuration not stated) | x | -12.0 | x | x | i
CCC(C)[C@H]1CN=C(N)N1CC1CCCCC1 (some centres not stated) | x | -14.6 | x | x | i
COc1ccccc1N1CCN(C(=O)c2ccc3c(c2)NC(=O)C(CSCc2ccccc2C)N3)CC1 (configuration not stated) | x | -1.6 | x | x | i
CCCCC1=CC2=CC(=O)C(C)(O)C(=O)C2=CO1 (configuration not stated) | x | 1.3 | x | x | i
CCCCC1=CC2=CC(=O)C(C)(OC(=O)c3ccco3)C(=O)C2=CO1 (configuration not stated) | x | -6.8 | x | x | i
CC(=O)OCCN1C(=O)c2cccc3cc([N+](=O)[O-])cc(c23)C1=O | x | 16.9 | x | x | i
C#C[C@]1(O)CC[C@H]2[C@@H]3[C@H](C)CC4=C(CCC(=O)C4)[C@H]3CC[C@@]21C | x | -7.4 | x | x | i
CC(C)=CCc1c(O)cc(O)c2c(=O)c3c(CC=C(C)C)c(O)ccc3oc12 | x | -5.2 | x | x | i
C#CCOCCOCCOCCNc1nc(N2CCN(C(=O)C([C@@H](C)CC)n3cc(C(N)COC(=O)C(F)(F)F)nn3)CC2)nc(N2CCN(C(=O)[C@H](Cc3cc4ccccc4[nH]3)n3cc(C(N)CO)nn3)CC2)n1 (some centres not stated) | x | -7.5 | x | x | i
COc1c(CC=C(C)C)cc(C2CC(=O)c3c(O)cc(O)cc3O2)c(CC=C(C)C)c1O (configuration not stated) | x | -3.1 | x | x | i
C=CC[C@@H]1C=C(C)C[C@H](C)C[C@H](OC)[C@H]2O[C@@](O)(C(=O)C(=O)N3CCCC[C@H]3C(=O)O[C@H](/C(C)=C/[C@@H]3CC[C@@H](O)[C@H](OC)C3)[C@H](C)[C@@H](O)CC1=O)[C@H](C)C[C@@H]2OC | x | -6.6 | x | x | i
COC(=O)C1=C(C(=O)OC)[C@@H]2N(C)c3ccc(OC)cc3[C@@]23C[C@@H](C(=O)OC)N(C(=O)c2cc(C)oc2C)C3=N1 | x | 14.8 | x | x | i
CC1(c2nnc(-c3ccc(F)cc3)o2)CC(c2ccncc2)=NO1 (configuration not stated) | x | -7.9 | x | x | i

Random excerpt: 2 records from the list
SMILES | eIF4H FP inh | CSC inhib | UUG fidelity | PABP polyA inh | Rce1 inhib | others
C#C[C@]1(O)CC[C@H]2[C@@H]3[C@H](C)CC4=C(CCC(=O)C4)[C@H]3CC[C@@]21C | x | -7.4 | x | x | i
CC(=O)OCCN1C(=O)c2cccc3cc([N+](=O)[O-])cc(c23)C1=O | x | 16.9 | x | x | i

Next part.
SMILES | eIF4H FP inh | CSC inhib | UUG fidelity | PABP polyA inh | Rce1 inhib | others
CCC(=O)OC1(C)C(=O)C=C2C=C(CCCCNC(=O)OC(C)(C)C)OC=C2C1=O (configuration not stated) | x | -2.0 | x | x | i
COc1cc(CN2CCN(c3cc(C)ccc3C)CC2)cc([N+](=O)[O-])c1O | x | 1.1 | x | x | i
COC(=O)CCC(=O)c1ccc(OC)c(Cl)c1 | x | 0.7 | x | x | i
CCCC[C@@H]1C[C@H]1[C@@H](NC(=O)c1ccco1)c1ccccc1C(F)(F)F | x | 3.4 | x | x | i
COC(=O)CCCC1=CC2=CC(=O)C(C)(O)C(=O)C2=CO1 (configuration not stated) | x | -5.0 | x | x | i
Cc1nc2ccc(CN(C)c3ccc(C(=O)N[C@@H](CCC(=O)O)C(=O)O)s3)cc2c(=O)[nH]1 | x | 75.3* | x | x | i
CCCCC1=CC2=CC(=O)C(C)(OC(=O)CCC(=O)OC)C(=O)C2=CO1 (configuration not stated) | x | 0.2 | x | x | i
CC1(O)C(=O)C=C2C=C(c3ccc(C#N)cc3)OC=C2C1=O (configuration not stated) | x | -5.9 | x | x | i
Nc1ccc(O)c2ccccc12 | x | 28.6 | x | x | i
CC1(C)CC[C@@]23CC[C@]4(C)[C@@](OC2=O)(C3C1)[C@H]1O[C@H]1C1[C@@]2(C)CC[C@H](O)C(C)(C)C2CC[C@]14C (some centres not stated) | x | -14.8 | x | x | i
COc1ccc(CNC(=O)c2ccc(N3CCC4(CC3)CC(c3ccc(Cl)cc3)=NO4)c(N)c2)cc1 | x | 13.4 | x | x | i
CCC/C(=N/Nc1ccc(Cl)cc1)c1cnnc(-c2ccccc2)n1 | x | -0.5 | x | x | i
Cc1ccc(CN2CC(C(=O)Nc3ccc(C)cn3)CC2=O)cc1 (configuration not stated) | x | -18.7 | x | x | i
CC1(OC(=O)c2cnc3ccccc3n2)C(=O)C=C2C=C(c3ccc(C#N)cc3)OC=C2C1=O (configuration not stated) | x | 11.5 | x | x | i
CN1CCc2c(C#N)c(N3CCCCC3)nc(N3CCOCC3)c2C1 | x | -4.1 | x | x | i
COC(=O)CCC(=O)OC1(C)C(=O)C2=CN(Cc3ccco3)C(c3ccc(OC)cc3)=CC2=C(Br)C1=O (configuration not stated) | x | -12.0 | x | x | i
CC(C)=CCC12Oc3cc(O)ccc3C1(O)Oc1cc3c(c(O)c1C2=O)C=CC(C)(C)O3 (configuration not stated) | x | 7.8 | x | x | i
COCc1c(C(C)C)nc(C(C)C)c(/C=C/[C@@H](O)C[C@@H](O)CC(=O)O)c1-c1ccc(F)cc1 | x | 105.8* | x | x | i
CC(C)(C)OC(=O)NCCCC1=CC2=CC(=O)C(C)(OC(=O)c3ccc(Cl)nc3)C(=O)C2=CO1 (configuration not stated) | x | 16.1 | x | x | i
C[C@H](NC(CCc1ccccc1)C(=O)O)C(=O)N1CCC[C@H]1C(=O)O (some centres not stated) | x | -3.7 | x | x | i
CCOC(=O)c1ccc(NC(=S)Nc2ccccc2N)cc1 | x | 12.9 | x | x | i
NC(CCCCc1ccccc1)c1cccc2ccccc12 (configuration not stated) | x | 28.6 | x | x | i
CC#CCN1c2ccccc2[C@]23C[C@@H](C(=O)OC)N(C(=O)c4ccc(Br)cc4)C2=NC(C(=O)OC)=C(C(=O)OC)[C@H]13 | x | 40.4 | x | x | i
COCC(=O)N1CCCCN2[C@H](C1)[C@@H](c1ccc(-c3ccc(F)cc3)cc1)[C@@H]2CO | x | x | -12.5 | x | x
COc1cccc(C(=O)Nc2ccc3c(c2)OC[C@H](C)N(CCc2ccccc2)C[C@H](C)[C@@H](OC)CN(C)C3=O)c1 | x | x | 4.2 | x | x
CN1CCN(C(=O)C[C@@H]2CC[C@@H]3[C@H](COC[C@H](O)CN3C(=O)Nc3cc(Cl)cc(Cl)c3)O2)CC1 | x | x | 1.7 | x | x
Cc1ccc(S(=O)(=O)Nc2ccc3c(c2)CC(=O)N([C@@H](C)CO)C[C@H](C)[C@H](CN(C)Cc2ccc4c(c2)OCO4)O3)cc1 | x | x | -5.1 | x | x
COCC(=O)N1CC[C@@H]2[C@H]1c1cc(-c3ccc(C#N)cc3)ccc1N[C@@H]2CO | x | x | -15.7 | x | x
CN1CCCCN2[C@H](CO)[C@@H](c3ccc(Br)cc3)[C@H]2C1 | x | x | -3.8 | x | x
COc1ccc(S(=O)(=O)N(C)C[C@@H]2Oc3c(NC(=O)NC4CCCCC4)cccc3C(=O)N([C@H](C)CO)C[C@H]2C)cc1 | x | x | -2.4 | x | x
C[C@H]1CN([C@@H](C)CO)C(=O)c2cc(NC(=O)CCCN(C)C)ccc2O[C@@H]1CN(C)Cc1ccc(-c2ccccc2)cc1 | x | x | -4.4 | x | x
OC[C@H]1[C@@H](c2ccc(-c3cccc(F)c3)cc2)[C@H]2CN(CCC(F)(F)F)CCCCN21 | x | x | -3.9 | x | x
C[C@H](CO)N1C[C@H](C)[C@H](CN(C)S(=O)(=O)c2ccc(Cl)cc2)Oc2ccc(NC(=O)C3CC3)cc2CC1=O | x | x | 5.1 | x | x
COc1ccc(S(=O)(=O)N(C)C[C@H]2Oc3ccc(NC(=O)Cc4ccccc4)cc3C(=O)N([C@@H](C)CO)C[C@@H]2C)cc1 | x | x | 12.5 | x | x
O=C(Nc1cccc(F)c1)N1CCCCN2[C@H](CO)[C@@H](c3ccc(C#Cc4ccccc4)cc3)[C@@H]2C1 | x | x | -17.4 | x | x
CC(C)NC(=O)N(C)C[C@H]1Oc2ccc(NS(=O)(=O)c3ccc(F)cc3)cc2C(=O)N([C@H](C)CO)C[C@H]1C | x | x | 4.1 | x | x
CC(C)NC[C@H]1[C@H](c2ccc(C3=CCCCC3)cc2)[C@@H](CO)N1C(=O)NC(C)C | x | x | -0.5 | x | x
C[C@H]1CN([C@@H](C)CO)C(=O)c2cc(NC(=O)NC3CCCCC3)ccc2O[C@@H]1CN(C)Cc1ccc(C(=O)O)cc1 | x | x | 9.4 | x | x
CCCN1C[C@@H](C)[C@H](OC)CN(C)C(=O)c2ccc(NC(=O)c3cnccn3)cc2OC[C@@H]1C | x | x | 1.7 | x | x
Cc1ccc(S(=O)(=O)Nc2cccc3c2O[C@H](CN(C)C(=O)Nc2ccc4c(c2)OCO4)[C@@H](C)CN([C@@H](C)CO)C3=O)cc1 | x | x | 5.8 | x | x
O=C(C[C@H]1CC[C@@H]2[C@H](COC[C@H](O)CN2CC2CCOCC2)O1)N1CCOCC1 | x | x | 22.3 | x | x
C[C@H]1CN([C@@H](C)CO)C(=O)c2cc(NS(C)(=O)=O)ccc2O[C@@H]1CN(C)C(=O)NC1CCCCC1 | x | x | -15.8 | x | x
